D2 potentiator – positive allosteric modulators of human D2 dopamine receptor; DiscoveRx D2 beta-arrestin cells, luminescence, 90 min; 100% = 57 uM dopamine signal; 360,000 tested, 0.23% active; potentiation, % (no concentration beside the values); AID 624464; P14416; active = potentiation of 50% or more; inconclusive = 30% to 50%; inactive = 30% or less;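 also: compound concentration not given in the record; tested on top of an EC20 dose of dopamine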
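PathHunter D2 cells, attached overnight at 37 deg C, received compound in DMSO plus dopamine at EC20 (50 nM final) for 90 min at 37 deg C. Beta-arrestin recruitment was read as luminescence after 1 h with detection reagent at ambient temperature.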
D2 ag – human D2 receptor agonism in beta-arrestin assay; DiscoveRx PathHunter D2 beta-arrestin, luminescence, 90 min; 100% = 57 uM dopamine signal; P14416; 360,000 tested, 0.084% active; AID 624465; activation, % (test concentration not listed); in the data active = activation above about 40%; inconclusive = about 15% to 40%; inactive = below about 15%; also: compound concentration not given in the record; the text of the record calls up to 30% inactive
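DiscoveRx PathHunter D2 beta-arrestin cells (2,100/well) attached overnight, then compound-stimulated 90 min at 37 C in HBSS/10 mM HEPES/0.1% Tween-20 buffer; beta-galactosidase complementation read by luminescence after 1 h at ambient temperature. Dopamine 57 uM final (EC100) as control.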
PINK1 expr mod – changes PINK1 expression; 410,000 tested, 0.2% active; PINK1 immunofluorescence, high-content cytometry, 24 h; AID 624263; Potency, µM (titrated, usually from 76.6 µM), for inactives: at the top dose activation (PINK1 increase), hits mostly activators; active = well fitted activation curve with a large enough effect; inconclusive = small, poorly fitted or top-dose-only effect; inactive = flat fitted curve, though single readings scatter; cell line not stated here;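 also: potency is read from the fitted curve at half-maximal effect; % of control where 0% means no effect; nearly all actives have a fitted effect of over 65% in size; a mitochondrial uncoupler was the plate control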
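Compound titrations (5 concentrations, 24 h) on a stable cell line; DMSO and CCCP controls. Endpoint: fixed-cell PINK1 immunofluorescence with mitochondrial, cell and nuclear markers, scanned by microplate cytometer.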
TRPML1 agonist – human mucolipin-1 channel agonism. AID 624414. Q9GZU1. activation, % (test concentration not listed). TRPML1-expressing cells, Ca2+ dye fluorescence, FDSS; host cell line not named in the record; reference of the full effect not given here. 410,000 tested, 0.12% active; in the data active = activation above about 50%; inconclusive = about 30% to 50%; inactive = below about 30%; also: 0% is about no effect; the text of the record puts the active cut at 80%
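Agonist activity was taken from a 110 s kinetic Ca2+ dye read on the FDSS after pinning compounds onto TRPML1-DL cells. The cells were seeded at 1,500/well with Tet inducer, incubated about 16 h, then dye-loaded at room temperature.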
TRPML1 blocker – inhibitors of human TRPML1 channel. Q9GZU1. AID 624415. 390,000 tested, 0.02% active. activity change, negative = inhibition, % (test concentration not listed). TRPML1-inducible cells, Ca2+ dye fluorescence, FDSS; active compounds read low; inhibition of EC80 agonist-evoked calcium signal; in the data active means activity change below about -50%; inconclusive means about -30% to -50%; inactive means above about -30%;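 also: stimulus is agonist 54-4 at its EC80 concentration; % is scaled to controls: 0 for no effect and ±100 for the full control effect; compound concentration not given in the record; the text of the record puts the active cut at -80%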
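Tet-induced TRPML1-DL cells loaded with Ca8 no-wash calcium dye were read kinetically on FDSS. Compound addition was followed by EC80 agonist 54-4 (4 uM final); inhibition was read over 110 s.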
Six1-Eya2 inh – inhibitors of human Six1/Eya2 interaction; AlphaScreen GST-Six1/His-Eya2 binding, biochemical; active compounds read low; control for the full effect not named in the record; activity change, % (test concentration not listed); 360,000 tested, 0.56% active; in the data active = activity change below about -65%; inconclusive = about -30% to -65%; inactive = above about -30%; also: % is scaled to controls: 0 for no effect and ±100 for the full control effect
Target sequence (O00167 whole entry, looked up): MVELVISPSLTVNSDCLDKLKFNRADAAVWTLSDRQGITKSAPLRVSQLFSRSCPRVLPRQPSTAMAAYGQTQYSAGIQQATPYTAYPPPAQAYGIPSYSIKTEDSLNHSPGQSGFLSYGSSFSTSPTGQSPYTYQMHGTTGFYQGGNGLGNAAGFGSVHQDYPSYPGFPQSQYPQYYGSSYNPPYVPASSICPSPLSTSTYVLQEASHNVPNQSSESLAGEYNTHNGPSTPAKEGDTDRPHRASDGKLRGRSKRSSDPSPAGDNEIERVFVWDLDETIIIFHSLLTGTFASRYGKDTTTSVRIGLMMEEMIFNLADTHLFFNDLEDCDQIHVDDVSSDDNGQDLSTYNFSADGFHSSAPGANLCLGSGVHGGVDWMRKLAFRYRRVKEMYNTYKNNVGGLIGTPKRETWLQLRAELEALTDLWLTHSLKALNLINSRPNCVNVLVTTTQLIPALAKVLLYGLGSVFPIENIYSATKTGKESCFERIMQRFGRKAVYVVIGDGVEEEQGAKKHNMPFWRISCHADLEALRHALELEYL
Target sequence (Q15475 whole entry, looked up): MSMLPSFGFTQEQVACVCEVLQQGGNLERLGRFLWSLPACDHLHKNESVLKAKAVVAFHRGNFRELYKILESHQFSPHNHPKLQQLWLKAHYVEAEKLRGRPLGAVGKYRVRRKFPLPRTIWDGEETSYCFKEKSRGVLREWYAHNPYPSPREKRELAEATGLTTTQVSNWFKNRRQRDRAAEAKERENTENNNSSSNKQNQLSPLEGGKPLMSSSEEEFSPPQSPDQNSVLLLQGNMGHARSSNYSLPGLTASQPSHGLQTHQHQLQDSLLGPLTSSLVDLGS
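Homogeneous AlphaScreen proximity assay pairing GST-Six1 with His-tagged Eya2 (added as 5X mix: 250 nM and 500 nM) in 50 mM Tris pH 8.0, 300 mM NaCl, 1 mM TCEP. Glutathione donor and nickel acceptor beads; 1 h, 37 °C, dark.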
* marks the source's active call; other numbers are inactive results; ? = inconclusive; nt = not tested or not shown; & = joins results of further samples; [ ] = dose if it differs, or a comment.

SMILES | D2 potentiator | D2 ag | PINK1 expr mod | TRPML1 agonist | TRPML1 blocker | Six1-Eya2 inh
Cc1ccc(N(C)C(=O)N2CCN(c3ccccn3)CC2)cc1 | 0 | 0.8 | -0.5% | -0.4 | 6 | -5
Cc1cccc(/C=C/c2onc(C)c2S(=O)(=O)N2CCC(C(=O)N3CCCCC3)CC2)c1 | -25 | -0.2 | -0.5%&0.8% | -0.9&2.5 | 9&1 | -1
CCOC(=O)CSc1nnc(-c2ccc(OC)cc2)n1CC | 2 | -1.9 | -1.4% | -1.0 | 6 | 0
Cc1ccc(-c2ccc(CN3C(C)C(=O)N(Cc4cn(CCC5OCCO5)nn4)CCS3(=O)=O)cc2)cc1 (stereo unspecified) | -2 | -0.6 | 3.5% | 1.4 | -5 | 3
O=C(O)c1cc(-c2ccc(O)cc2)on1 | 6 | -5.1 | 1.8% | -0.2 | -4 | 5
Cc1cc(F)ccc1NC(=O)Cn1cc(S(=O)(=O)NC(C)C)c(S(=O)(=O)NC(C)C)c1 | nt | nt | 1.9% | -0.4 | 0 | nt
CCc1ccc2oc(C(=O)Nc3cccc(Cl)c3C)cc(=O)c2c1 | nt | nt | 2.0% | -0.5 | -9 | nt
CC1(COS(N)(=O)=O)CCCCC1 | -41 | 1.7 | 0.1% | -0.6 | -18 | 3
CCOc1ccc(S(=O)(=O)Nc2cc(OC)ccc2OC)cc1 | -1 | 1.4 | 2.4% | 0.1 | -4 | 4
Cc1ccc(C2CN(C)C3(C(=O)Nc4ccccc43)C23COc2ccccc2C3=O)cc1 (stereo unspecified) | 2 | -4.5 | 4.7% | -0.4 | -21 | -21
CC(Oc1ccc(Br)cc1)C(=O)N1CCC(C(N)=O)CC1 (stereo unspecified) | -5 | -7.0 | -0.3% | 0.6 | -15 | 2
NC(=O)c1ccsc1NC(=O)COC(=O)CNC(=O)c1cccc([N+](=O)[O-])c1 | 0 | 2.9 | 0.3% | 3.6 | 20 | -3
CC(C)NC(=O)c1ccc(-n2nc(C(F)(F)F)c3c2CCCC3)cc1 | 10 | 1.8 | 15% | 0.8 | -28 | 3
O=C(c1ccc2c3n(nc2c1)-c1ccc(Cl)cc1CO3)N1CCCCC1 | 0 | 0.9 | 1.7% | 0.6 | 29 | -6
CCOC(=O)c1c(C)[nH]c(C)c1C(=O)COC(=O)c1nc2nccc(C)n2n1 | -1 | 1.9 | 0.1% | 0.9 | -13 | 0
C=CCn1c(SCC(=O)Nc2ccc(S(N)(=O)=O)cc2)nnc1-c1cnccn1 | -9 | -3.2 | -0.6% | -0.9 | 90 | 15
O=C(CNC(=O)/C(=C\c1ccc(Br)cc1)NC(=O)c1ccccc1)OCc1ccccc1 | -3 | 0.9 | 0.0% | -1.1 | -5 | -18
CC(O)COc1ccc(/C(=N/O)c2ccccc2)cc1 (stereo unspecified) | 3 | 0.6 | -0.5% | 2.7 | 11 | 3
COC(=O)c1ccc(Cn2c(SCc3ccccc3)nc3ccncc32)cc1 | nt | nt | -1.4% | 0.8 | -9 | nt
Cc1c(Br)cccc1NC(=O)C1(C)CCN1Cc1ccc(OC(C)C)cc1 (stereo unspecified) | -20 | -1.9 | 4.8% | -0.1 | nt | 9
CCSc1nnc(NC(=O)CSc2nnc(-c3c[nH]c4ccccc34)n2C)s1 | -10 | -3.8 | 2.0% | -0.4 | 3 | 3
O=C1c2cccnc2C(=O)N1Cc1ccc2c(c1)OCO2 | -9 | -1.2 | 2.1%[38.3 µM] | 0.1 | 31 | -8
COC(=O)CCCn1cc(CN2CC(N3CCN(CCN(C)C)CC3)CS2(=O)=O)nn1 (stereo unspecified) | nt | nt | -0.5% | 0.6 | nt | 10
Cn1c(NCc2ccco2)nc2ccccc21 | -6 | 1.1 | 5.7%[38.3 µM] | -0.4 | -4 | 3
Cc1ccc(S(=O)(=O)N2CCC(=O)N(C(COCc3ccc(Cl)cc3)C(C)C)CC2)cc1 (stereo unspecified) | -3 | 0.4 | 0.1% | 8.6 | -6 | 2
COC(=O)c1ccccc1NC(=O)CNC(=O)c1ccc(OC)c(OC)c1 | 0 | 0.6 | 2.1% | 0.9 | -7 | -13
COc1ccc(Br)cc1S(=O)(=O)N(CC(=O)N1CCN(C)CC1)c1ccccc1 | -34 | -2.1 | -0.6% | 0.0 | -4 | 0
CCC(C)n1c(NC(=O)c2ccccc2)c(C#N)c2nc3ccccc3nc21 (stereo unspecified) | -11 | -5.5 | ? | 0.6 | -17 | 59
CN(Cc1ccco1)C(=O)C(Cc1ccccc1)NS(=O)(=O)c1ccc2c(c1)CCC(=O)N2 (stereo unspecified) | -3 | -0.5 | 3.2% | 0.1 | -18 | 0
CCCN1C(=O)C(=O)c2cc(C)ccc21 | -9 | -1.3 | 5.3% | -0.7 | -1 | -3
CCCc1oc(C(=O)O)cc1CN1CCCC1 | 2 | -1.9 | -3.5%[38.3 µM] | -0.2 | -9 | -1
COc1ccc2[nH]cc(C3N4CC5(C)CN3CC(C)(C4)C5=O)c2c1 (stereo unspecified) | -3 | -0.3 | 3.3%[38.3 µM] | 1.1 | 27 | -1
CCc1nnc(NC(=O)c2oc3ccccc3c2COC(C)C)s1 | 2 | 0.0 | -0.1% | 0.1 | -6 | 4
CCOC(=O)c1nnn(CC(=O)NC(=O)Nc2ccccc2)c1C(=O)OCC | -1 | 1.5 | -0.2% | 0.9 | -2 | 1
CCC1Nc2ncnc(N3CCCCC3)c2N(Cc2ccc(Br)cc2)C1=O (stereo unspecified) | -31 | -8.8 | 1.0% | 0.8 | 18 | 0
CN(CCc1cn[nH]c1)Cc1nc(Cc2ccccc2)no1 | 3 | -1.2 | 0.1% | 0.4 | -1 | 2
Cc1cc(C(=O)CSc2nn3c(=O)c(C(C)(C)C)nnc3s2)c(C)n1C1CC1 | -7 | -2.7 | 0.5% | 1.0 | 9 | ?
O=C(COC(=O)c1ccc(Cl)c(S(=O)(=O)N2CCCCC2)c1)NCCc1ccccc1 | -3 | 0.5 | 1.4% | 2.9 | -5 | 15
O=S(Cc1ccc(Cl)cc1)CC(O)COc1ccc(Cl)cc1 (stereo unspecified) | -4 | -2.8 | 0.3%[38.3 µM] | 1.2 | 0 | 3
COc1ccc(C(C)=O)cc1COC(=O)c1cc(=O)c2ccccc2o1 | -5 | -2.9 | 2.5% | -1.2 | -10 | 2

9 successive compounds from above, for reference:
SMILES | D2 potentiator | D2 ag | PINK1 expr mod | TRPML1 agonist | TRPML1 blocker | Six1-Eya2 inh
Cc1ccc(N(C)C(=O)N2CCN(c3ccccn3)CC2)cc1 | 0 | 0.8 | -0.5% | -0.4 | 6 | -5
Cc1cccc(/C=C/c2onc(C)c2S(=O)(=O)N2CCC(C(=O)N3CCCCC3)CC2)c1 | -25 | -0.2 | -0.5%&0.8% | -0.9&2.5 | 9&1 | -1
CCOC(=O)CSc1nnc(-c2ccc(OC)cc2)n1CC | 2 | -1.9 | -1.4% | -1.0 | 6 | 0
Cc1ccc(-c2ccc(CN3C(C)C(=O)N(Cc4cn(CCC5OCCO5)nn4)CCS3(=O)=O)cc2)cc1 (stereo unspecified) | -2 | -0.6 | 3.5% | 1.4 | -5 | 3
O=C(O)c1cc(-c2ccc(O)cc2)on1 | 6 | -5.1 | 1.8% | -0.2 | -4 | 5
Cc1cc(F)ccc1NC(=O)Cn1cc(S(=O)(=O)NC(C)C)c(S(=O)(=O)NC(C)C)c1 | nt | nt | 1.9% | -0.4 | 0 | nt
CCc1ccc2oc(C(=O)Nc3cccc(Cl)c3C)cc(=O)c2c1 | nt | nt | 2.0% | -0.5 | -9 | nt
CC1(COS(N)(=O)=O)CCCCC1 | -41 | 1.7 | 0.1% | -0.6 | -18 | 3
CCOc1ccc(S(=O)(=O)Nc2cc(OC)ccc2OC)cc1 | -1 | 1.4 | 2.4% | 0.1 | -4 | 4

Continued:
SMILES | D2 potentiator | D2 ag | PINK1 expr mod | TRPML1 agonist | TRPML1 blocker | Six1-Eya2 inh
CC(C)Sc1cc(N2CCCC2)nc(-c2ccccc2)n1 | 1 | 1.3 | 16% | 0.7 | -14 | 30
O=C(CSc1nc2c([nH]c3ccccc32)c(=O)n1-c1ccc(F)cc1)NCc1ccc(F)cc1 | nt | nt | 4.4% | 3.6 | 3 | nt
CCCC(=O)NC(=S)Nc1ccc(N2CCN(C(=O)c3cccs3)CC2)cc1 | 3 | 11 | 0.5% | 2.1 | 23 | ?
COc1ccc(C(=O)CSc2nc(SC)ns2)cc1OC | -11 | -0.3 | 17% | 1.9 | 13 | 7
COCCNC(=O)c1cccc2c(-c3ccnn3C)coc12 | -7 | -5.0 | 2.8% | 1.4 | nt | -12
O=S1(=O)CC/C(=N\Nc2ccccc2)c2ccsc21 | 0 | -4.7 | 1.6% | 0.1 | 44 | -12
Cc1cc(C(=O)NCc2ccc(Cl)cc2)c2c(C)nn(-c3ccccc3)c2n1 | nt | nt | 0.2% | -0.8 | -4 | nt
CCCCc1cc2c(cn1)=C(OC(=O)c1cnc3ccccc3n1)C(C)(OC(=O)CC)C(=O)C=2 (stereo unspecified) | -1 | 2.1 | -1.1% | 3.1 | 6 | -9
CCCc1cc(=O)oc2cc(OCC(=O)N(C)C)c(Cl)cc12 | 1 | -1.5 | 0.5% | 0.8 | -7 | 7
CCCCCCNC(=O)CC(c1ccccc1)c1cc(Br)ccc1O (stereo unspecified) | 6 | 6.2 | ? | 2.5 | -9 | -8
Cc1ccc(S(=O)(=O)N(C)C)cc1NC(=O)COC(=O)c1ccc2ccccc2n1 | -6 | -0.9 | 2.1% | 1.8 | 9 | -1
CCC1c2ccccc2C(=O)C1C(N)=O (stereo unspecified) | -29 | -2.3 | -5.1% | -0.1 | 13 | 2
CCn1c2ccccc2c2cc(NC(=O)CSc3nnc(-c4ccc(OC)c(OC)c4)n3N)ccc21 | -12 | -0.1 | nt | 0.5 | -16 | 1
O=C(CCN1C(=O)/C(=C/c2ccccc2Cl)SC1=S)NC1CCCC1 | 7 | -1.5 | 5.4% | -0.2 | 16 | -7
Cc1ccc(C(=O)OCC(=O)NCC2CCCO2)c(C)c1 (stereo unspecified) | -2 | -1.3 | 1.1% | 0.0 | 18 | 0
O=C(OCc1ccccc1)/C(=C/c1cccc(Br)c1)NC(=O)c1ccco1 | 2 | -6.9 | 2.6% | 1.7 | 24 | -6
COc1cccc2cc(-c3nnc(SCC(=O)Nc4cc(C(F)(F)F)ccc4Cl)n3N)oc12 | -4 | 1.7 | 23%[38.3 µM] | 0.7 | 11 | 0
CC(C)(C)c1cn(-c2ccc(F)cc2)c(=S)[nH]1 | -10 | -1.5 | -1.0% | 2.7 | -20 | -6
CC(C)c1nnc(NC(=O)c2ccc(S(=O)(=O)N3CCOCC3)cc2)s1 | -2 | -1.9 | -1.3% | -0.3 | 25 | 1
CCc1ccc(CNC(=O)CCn2c(=O)c3cccn3c3ccc(F)cc32)cc1 | nt | nt | 0.7% | 2.3 | 2 | nt
